Assay outcomes from PubChem BioAssay.
SARS PLP yeast: blocks SARS-CoV papain-like protease in a yeast assay | S. cerevisiae expressing SARS-CoV PLpro, growth rescue; control for the full effect not named in the record | Potency, µM (highest dose often 32.9 µM), for the others: at the top dose activity, positive = growth rescue | actives 0.19% (n = 330,000) | AID 485353; active means well fitted rising curve with a large enough effect; inconclusive means small, poorly fitted or top-dose-only effect; inactive means no such curve, though single readings can be large or run the other way; note: 0% is about no effect; nearly all actives have a fitted effect of over 55% in size; growth read by luminescence after 48 h
Cruzain inh Det: cruzain (T. cruzi) inhibition with detergent; purified cruzain, Z-FR-AMC fluorescence, 0.01% Triton; Potency, µM, for inactives: max response, negative = inhibition, hits mostly inhibitors; actives 0.43% (n = 200,000); AID 1478;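 note: plate controls were neutral wells for no effect and buffer without enzyme for full effect; nearly all actives have a fitted effect of over 40% in size; top concentration of the series not given in the record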
Target sequence (P25779 123-467 limits assumed): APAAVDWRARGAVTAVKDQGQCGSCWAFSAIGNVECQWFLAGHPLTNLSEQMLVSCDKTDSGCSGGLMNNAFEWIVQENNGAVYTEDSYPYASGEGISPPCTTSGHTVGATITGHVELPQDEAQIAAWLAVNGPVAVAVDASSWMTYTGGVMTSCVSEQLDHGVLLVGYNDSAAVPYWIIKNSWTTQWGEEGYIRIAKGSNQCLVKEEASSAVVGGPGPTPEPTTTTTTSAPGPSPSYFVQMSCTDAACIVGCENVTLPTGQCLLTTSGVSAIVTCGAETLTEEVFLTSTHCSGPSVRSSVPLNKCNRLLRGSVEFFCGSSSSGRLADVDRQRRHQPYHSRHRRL
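Z-FR-AMC hydrolysis (2 uM substrate) by cruzain (1.5 nM) monitored kinetically at ex 360/em 450 nm after 15 min room-temperature compound exposure; 0.01% Triton X-100, pH 5.5, 5 mM DTT.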
RE007 growth inh: less growth of the S. pombe RE007 Vpr strain; Potency, µM (series often up to 92.2 µM), for inactives: at the highest dose activity change, negative = less growth; S. pombe RE007 Vpr strain, BacTiter-Glo ATP luminescence, 24 h; control for the full effect not named in the record; actives 0.21% (n = 360,000); active = well fitted falling curve with a large enough effect; inconclusive = small, poorly fitted or top-dose-only effect; inactive = no such curve, though single readings can be large or run the other way;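 note: % is set by controls: 0 for no effect and ±100 for the full control effect; nearly all actives have a fitted effect of over 50% in size; the assay follows cell death caused by Vpr and the record does not say whether a fall means rescue or toxicity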
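Fission yeast strain RE007, carrying one chromosomally integrated HIV-1 vpr copy, was seeded at OD 0.01 in PMG+AL medium with 23 nL pinned compound. After 24 h at 30 °C and 99% humidity, viability was read by BacTiter-Glo luminescence.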
Cruzain inh noDet: inhibitors of Trypanosoma cruzi cruzain without detergent; P25779; purified cruzain, Z-FR-AMC fluorescence, no detergent; Potency, µM, for the others: max response, negative = inhibition, usual class: inhibitors; actives 2.3% (n = 200,000); AID 1476;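 note: plate controls were enzyme without inhibitor for no effect and buffer without enzyme for full effect; nearly all actives have a fitted effect of over 40% in size; top concentration of the series not given in the record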
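Detergent-free condition (0.00005% Triton X-100) in acetate buffer pH 5.5 with DTT. 1.5 nM enzyme and compound were pre-mixed 15 min, then 2 uM Z-FR-AMC substrate added; reaction progress from fluorescence change between first and third reads (60 s).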
MARV entry inh: Marburg virus entry inhibition; Marburg virus pseudotyped entry inhibition, cell reporter; control for the full effect not named in the record; about a third of the inactives were read at about 46 µM; Potency, µM (titrated, usually from 37.8 µM), without a hit: at the highest dose activity change, negative = inhibition, actives largely listed as inhibitors; actives 1.8% (n = 300,000); AID 540276; active = well fitted inhibition curve with a large enough effect; inconclusive = small, poorly fitted or top-dose-only effect, or effect the other way; inactive = flat fitted curve, though single readings scatter; tested in HEK293 cells; about a fifth of its hits are not listed in these tables; note: % is set by controls: 0 for no effect and ±100 for the full control effect; luciferase read-out
StopGo reporter: lowers the luciferase signal of an FMDV 2A StopGo reporter; human cells with a luciferase reporter of 2A StopGo recoding; control for the full effect not named in the record; AID 1159524; actives 1.2% (n = 410,000); Potency, µM (highest dose often 57.9 µM), for inactives: at the top dose signal change, negative = less light; active = well fitted falling curve with a large enough effect; inconclusive = small, poorly fitted or top-dose-only effect; inactive = no such curve, though single readings can be large or run the other way; tested in HEK293T cells; note: % is set by controls: 0 for no effect and ±100 for the full control effect; nearly all actives have a fitted effect of over 45% in size; luciferase light after 4 h
Lassa entry inh: blocks Lassa virus binding to or entry into cells; Lassa virus pseudotype entry inhibition, cell reporter; control for the full effect not named in the record; Potency, µM (series often up to 37.9 µM), without a hit: top-dose activity change, negative = inhibition, most hits filed as inhibitors; actives 1.2% (n = 300,000); active means well fitted inhibition curve with a large enough effect; inconclusive means small, poorly fitted or top-dose-only effect, or effect the other way; inactive means flat fitted curve, though single readings scatter; tested in HEK293 cells; note: % is set by controls: 0 for no effect and ±100 for the full control effect; nearly all actives have a fitted effect of over 50% in size; luciferase read-out
NS1 inh: blocks influenza NS1 protein function. S. cerevisiae slowed by influenza A NS1, growth recovery by OD600. Potency, µM (titrated, usually from 46.1 µM), for inactives: top-dose activity, positive = more growth. actives 0.4% (n = 270,000); active means well fitted rising curve with a large enough effect; inconclusive means small, poorly fitted or top-dose-only effect; inactive means no such curve, though single readings can be large or run the other way; note: nearly all actives have a fitted effect of over 50% in size
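Growth recovery, yeast-based: influenza A NS1 expressed in S. cerevisiae causes slow growth, and suppressors are detected by OD600. The parent strain without NS1 is used as positive control.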
* marks the source's active call; other numbers are inactive results; ? = inconclusive; nt = no result given; [ ] = remark or other dose. Unless noted, calls come from the whole dose curve; as a rule, active = well fitted curve in the direction sought with a large enough effect; inconclusive = small, poorly fitted or top-dose-only effect, or another doubt; inactive = no such curve, though single readings can be large; an effect the other way counts as inactive or inconclusive. Potency is the fitted concentration of half-maximal effect.

structure | SARS PLP yeast | Cruzain inh Det | RE007 growth inh | Cruzain inh noDet | MARV entry inh | StopGo reporter | Lassa entry inh | NS1 inh
O=C(O)Cn1nnnc1SCC(=O)Nc1ccc(OC(F)(F)F)cc1 | 4% | 4.8% | 17% | -1% | 12% | 0% | ? | -1%
CN1CCCC(OC(=O)c2cc(Cl)cc(Cl)c2)C1 (stereo not given) | 5% | nt | 6% | nt | 10% | -16% | 1% | nt
c1nc(N2CCNCC2)c2sc3nc(N4CCOCC4)c4c(c3c2n1)CCC4 | 8% | 3.4% | nt | 0% | -1% | nt | nt | -1%
O=S(=O)(NCCc1csc(-c2ccc(F)cc2)n1)c1ccc(Cl)cc1 | nt | -10% | nt | -4% | nt | 0% | 2%[46.1 µM] | nt
Cc1c(OCC(=O)NCCCN2CCCC2=O)ccc2c3c(c(=O)oc12)CCC3 | 0% | nt | -3% | nt | nt | -7% | nt | 1%
Cc1cc2nnc(SCC(=O)Nc3cccc(S(=O)(=O)N4CCOCC4)c3)n2c2ccccc12 | 1% | -7.1% | 0% | ? | -28% | -10% | -15% | -5%
CCCN(CC(=O)Nc1ccc(F)c(F)c1F)Cc1cc(=O)n2ccsc2n1 | 0% | nt | -9% | nt | 2%[46.1 µM] | -14% | 7% | nt
COC(=O)C1=NNC2(c3ccc(C)cc3)C(=O)N(c3cccc(C)c3C)C(=O)C12 (stereo not given) | 5% | -5.3% | -16% | -7% | 20% | -10% | -20% | 16%
Cc1onc(-c2c(Cl)cccc2Cl)c1C(=O)Nc1ccc2c(C(F)(F)F)cc(=O)oc2c1 | 0% | nt | -5% | nt | nt | -24% | nt | 7%
COc1cccc(N=Cc2nc(-c3ccccc3)oc2OC(C)=O)c1 | -2% | nt | 3% | nt | 4%[46.1 µM] | -8% | -2% | -4%
CCOc1ccc(CCNC(=O)Cn2ccc3cc(S(=O)(=O)N4CCCCCC4)ccc32)cc1 | nt | -7.8% | nt | 12% | nt | 0% | -15%[46.1 µM] | nt
C=CCc1cccc(CNc2nc3ccccc3n2C(C)C)c1O | 3% | -4.6% | -5% | 2% | ? | -16% | -30%[14.3 µM] | 2%
O=C1C(=O)N(c2ccccc2)C(c2ccccc2[N+](=O)[O-])/C1=C(\O)c1ccccc1 (stereo not given) | -1% | nt | -14% | nt | -8%[46.1 µM] | 19% | 8% | -2%
CCCn1c(CCl)nc2cc(S(=O)(=O)N3CCOCC3)ccc21 | -18% | nt | 6% | nt | 10%[46.1 µM] | 3% | 9%[46.1 µM] | nt
CCc1ccccc1NC(=O)Cn1nnc2sc3c(c2c1=O)CCC(C(C)(C)C)C3 (stereo not given) | nt | -6.3% | nt | ? | ? | -29% | 4%[46.1 µM] | nt
Cn1c(SCC(=O)Nc2ncc(C(F)(F)F)cc2Cl)nnc1-c1ccc(Cl)cc1 | -30% | -4.1% | 3% | -3% | ? | 9% | ? | 18%
CCNC(=O)CSc1nnc(-c2ccccc2Br)n1-c1cccc(C(F)(F)F)c1 | 6% | 2.1% | 3% | 81% | -1% | 0% | nt | -3%
Cc1[nH]c(N)nc(=S)c1CCCNc1ccccc1 | nt | -3.9% | ? | -16% | 8%[46.1 µM] | 15% | -13%[46.1 µM] | -3%
Cc1cc2c(cc1C)C(c1ccccc1Br)CC(=O)N2 (stereo not given) | -17% | -3.5% | nt | -14% | ? | ? | ? | 0%
Cc1ccc2oc(C(=O)Nc3ccc(S(=O)(=O)N(C)c4ccccc4)cc3)cc(=O)c2c1 | nt | 3.2% | nt | 5% | 6%[46.1 µM] | -13% | 18%[46.1 µM] | nt
Cc1ccc(-c2nc(-c3cccs3)c(-c3cccs3)[nH]2)cc1 | nt | -3.7% | nt | -17% | -29%[46.1 µM] | 0% | -14%[46.1 µM] | nt
O=C(O)c1ccccc1NS(=O)(=O)c1ccc2ccccc2c1 | -1% | nt | 5% | nt | -4%[46.1 µM] | 31%[activator] | 1% | ?
COc1ccc(CNc2nc3c(c(=O)[nH]c(=O)n3C)n2CCCc2ccccc2)cc1 | 3% | 1.5% | 2% | 0% | -30% | 0% | 1% | ?
Cc1ccc(C)c(NC(=S)N2C3CCCC2CC(NC(=O)C2CC2)C3)c1 (stereo not given) | 0% | nt | 0% | nt | 14%[46.1 µM] | -8% | nt | ?
Cc1ccc(/C=C/c2nnc(-c3ccc(C)cc3)o2)cc1 | -1% | -4.1% | -20% | -1% | 12% | nt | 11% | 3%
CC(C)Cc1nnc(NC(=O)Nc2ccccc2)s1 | 1% | nt | 21% | nt | ? | 45%[activator] | ? | -7%
COC(=O)C(NC(=O)CN1C(=O)c2ccccc2C1=O)c1ccc(O)c(OC)c1 (stereo not given) | 0% | nt | -15% | nt | nt | -9% | nt | 8%
CCO[C@@H]1OC(C(N)=O)=C[C@H](c2coc3ccccc3c2=O)[C@H]1CCCO | 0% | nt | -2% | nt | nt | -16% | nt | 4%
CCc1ccc(C(=O)COc2ccc(NC(C)=O)cc2)cc1 | 5% | 3.6% | 7% | -9% | 3% | 24% | 15% | -10%
CC(=O)Nc1ccc(C(=O)CSc2nnc(-c3ccc(O)cc3)n2CC2CCCO2)cc1 (stereo not given) | 2% | -7.4% | 9% | -3% | 10% | nt | -19% | -11%
CNC(=S)N1N=C(c2ccc(C)cc2)CC1c1ccc(OC)cc1 (stereo not given) | 2% | -2.5% | 9% | -1% | -20% | -17% | ? | -12%
O=C(CSc1nnc2ccc(-c3ccc(Br)cc3)nn12)NCC1CCCO1 (stereo not given) | -2% | nt | 2% | nt | 17%[46.1 µM] | -16% | 0% | nt
Cc1c(CCC(=O)NCc2cccc(Cl)c2)c(=O)oc2c(C)c(O)ccc12 | nt | -15% | nt | ? | 6%[46.1 µM] | 7% | 14%[46.1 µM] | nt
O=C(N/N=C/c1ccc([N+](=O)[O-])o1)c1cc2c(ccc3ccccc32)o1 | -3% | nt | 9% | nt | nt | 2% | nt | -6%
CCn1c(=O)c2cc(C(=O)N(C)c3cc(C)ccc3C)sc2c2ccccc21 | nt | 1.1% | nt | -4% | 2%[46.1 µM] | ? | 0%[46.1 µM] | nt
Cc1cc(C)cc(NC(=S)NCC2CCCO2)c1 (stereo not given) | 5% | 4.9% | -5% | 2% | -9% | 4% | 14% | 4%
CC(CCc1ccccc1)NC(=O)COC(=O)c1ccc([N+](=O)[O-])cc1 (stereo not given) | 1% | nt | -18% | nt | 12%[46.1 µM] | -10% | 24%[46.1 µM] | 0%
COCC(=O)Nc1cc(OC)cc(OC)c1 | 2% | -1.9% | 16% | 2% | -24% | 0% | 6% | ?
COc1ccccc1N(CC(=O)Nc1ccccc1F)S(C)(=O)=O | nt | -0.8% | nt | -4% | -6%[46.1 µM] | -25% | ? | nt
C=C(C)CN(CC)C(=O)Cn1cnc2c(oc3ccccc32)c1=O | -2% | nt | 2% | nt | 18% | 24% | 25% | 0%
Cc1cc(C(=O)N2CCN(c3ccccn3)CC2)c(C)o1 | 2% | 0.9% | -9% | 0% | 5% | 5% | 13% | 0%
CS(=O)(=O)N1CCN(c2nc3ccc(Cl)cc3s2)CC1 | -2% | nt | 19% | nt | 16%[46.1 µM] | 0% | ? | 5%
CCOc1ccc(NC(=O)NCc2ccc3c(c2)OCO3)cc1 | 6% | nt | 6% | nt | 2%[46.1 µM] | 15% | 0%[46.1 µM] | 4%
CC(=O)Nc1ccc(NC(=O)CSc2ccc3nnc(CCNS(=O)(=O)c4ccc(C)cc4)n3n2)cc1 | -3% | nt | 3% | nt | nt | -1% | nt | -5%
COc1ccc(C(=O)Nc2ccccc2C(=O)N2CCOCC2)cc1Br | -5% | nt | -4% | nt | -8%[46.1 µM] | -9% | 16% | 4%
CCOc1ccccc1NC(=O)CSc1nc2c(oc3ccccc32)c(=O)n1C(C)C | nt | 1.3% | nt | -3% | -14%[46.1 µM] | -13% | nt | nt
CCOC(=O)Cn1c(=O)oc2cc(S(=O)(=O)NC3CCCc4ccccc43)ccc21 (stereo not given) | 0% | -4.3% | -2% | -2% | 6% | -2% | nt | -76%
CC(=O)Nc1cccc(-c2cnc3ccccc3n2)c1 | -2% | -2.9% | 12% | 11% | ? | 67%[activator] | ? | -9%
COc1ccc2nc(N=Nc3c(O)ccc4ccccc34)sc2c1 | 6% | -2.5% | nt | -19% | -18% | nt | 12% | 6%
CN(Cc1ccccc1)c1nc2c(c(=O)[nH]c(=O)n2C)n1CCSc1nc2ccccc2[nH]1 | ? | -0.5% | -9% | 8% | -43% | -4% | ? | -1%
CCc1ccc2nc(N(CCCN(C)C)C(=O)c3ccc(C(=O)c4ccccc4)cc3)sc2c1 | 0% | nt | 3% | nt | ? | -22% | ? | -54%
Cc1c(C(=O)NCc2c(F)cc(F)cc2F)oc2ccc(S(=O)(=O)N3CCOCC3)cc12 | -1% | nt | 8% | nt | ? | ? | ? | -23%
CC(Cc1ccccc1)NCC(=O)Nc1cc(N(C)C)nc2ccccc12 (stereo not given) | 0% | nt | -25% | nt | ? | -21% | ? | -3%
Cc1c(NC(=O)C2(c3ccc(Cl)cc3)CCCC2)c(=O)n(-c2ccccc2)n1C | -4% | 0.1% | 2%[3.69 µM] | 13% | 2% | -15% | -18% | 0%

A different layout for some results above:
Each structure is followed by: SARS PLP yeast, Cruzain inh Det, RE007 growth inh, Cruzain inh noDet, MARV entry inh, StopGo reporter, Lassa entry inh, NS1 inh
C=C(C)CN(CC)C(=O)Cn1cnc2c(oc3ccccc32)c1=O
  -2%, nt, 2%, nt, 18%, 24%, 25%, 0%
Cc1cc(C(=O)N2CCN(c3ccccn3)CC2)c(C)o1
  2%, 0.9%, -9%, 0%, 5%, 5%, 13%, 0%
CS(=O)(=O)N1CCN(c2nc3ccc(Cl)cc3s2)CC1
  -2%, nt, 19%, nt, 16%[46.1 µM], 0%, ?, 5%
CCOc1ccc(NC(=O)NCc2ccc3c(c2)OCO3)cc1
  6%, nt, 6%, nt, 2%[46.1 µM], 15%, 0%[46.1 µM], 4%
CC(=O)Nc1ccc(NC(=O)CSc2ccc3nnc(CCNS(=O)(=O)c4ccc(C)cc4)n3n2)cc1
  -3%, nt, 3%, nt, nt, -1%, nt, -5%
